Screening data deposited in PubChem by Southern Research Institute.
Mtb growth = Mycobacterium tuberculosis H37Rv growth inhibition, cell based, confirmatory dose response (AID 1949); M. tuberculosis H37Rv growth inhibition; most inactive calls were filed without a number and no value below 0 was filed; inhibition, % at 10 µg/mL; hits with a dose series show IC50 in µg/mL; hit rate 1.6% among 100,000;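 active = confirmed in a dose series; inconclusive = about 50% or more but not retested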;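 also: bacteria grown 7 days with compound before Alamar blue readout; 0% = untreated bacteria and 100% = reference antibiotic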
The depositor's hits bear a star; i = inactive; ? = inconclusive.

structure,Mtb growth
COc1ccc(Cl)cc1C(=O)Nc1nnc(C2CCCCC2)s1,3.6%
Cc1cc(NS(=O)(=O)c2ccc([N+](=O)[O-])cc2)ccc1Br,20.8%
CCOc1ccc(NC(=O)c2cc(Br)cc(C)c2OC)cc1,i
CCN(CC)c1ncnc2c1ncn2Cc1c(Cl)cccc1Cl,3.9%
Cc1cc(C)cc(N(CC(=O)NCCSCc2ccccc2)S(=O)(=O)c2ccccc2)c1,i
Nn1c(Cc2ccccc2)nnc1SCc1nnc(-c2ccccc2)o1,0.3%
O=[N+]([O-])c1cccc(-c2cnc3ccccc3n2)c1,i
CS(=O)(=O)N(CC(=O)N1CCN(Cc2ccccc2)CC1)c1cccc(Cl)c1,i
CCOc1ccc(NC(=O)C2CC(=O)NC(N3CCN(C)CC3)=N2)cc1 (stereo not drawn),i
N#C/C(=C/c1cc(Cl)c(OCC(=O)O)c(Cl)c1)c1cccc(F)c1,i
CCOc1ccc(C(=O)Nc2cccc(C(F)(F)F)c2)cc1OC,11.1%
CCOC(=O)c1c(NC(=O)CC(C)C)sc2c1CC(C)(C)OC2,i
CN1CCN(C(=O)c2cc3c(n(-c4ccc(Cl)cc4)c2=O)CCCC3=O)CC1,4.2%
CN(CC(=O)N1CCN(c2cccc(Cl)c2)CC1)S(=O)(=O)c1ccc(Br)cc1,23.8%
COc1ccc(C(=O)O)cc1NC(=S)NC(=O)c1ccc(C)cc1,i
C=CCn1c(N2C(=O)CC(Cc3ccccc3)C2=O)nc2ccccc21 (stereo not drawn),i
COc1ccc(NC(=S)N2c3ccc(F)cc3CCC2C)cc1OC (stereo not drawn),i
O=C(Nc1c(C(=O)N2CCCCCC2)cnn1-c1ccccc1Cl)c1ccccc1Cl,i
COc1c(F)c(F)c(C(=O)Nc2cccc(-c3cc4ccccc4oc3=O)c2)c(F)c1F,i
Cc1ccc(C(=O)N2C(C)CCCC2C)c(C)c1 (stereo not drawn),i

Random excerpt: 2 records from the list
structure,Mtb growth
N#C/C(=C/c1cc(Cl)c(OCC(=O)O)c(Cl)c1)c1cccc(F)c1,i
CCOC(=O)c1c(NC(=O)CC(C)C)sc2c1CC(C)(C)OC2,i

Additional results.
structure,Mtb growth
COc1cc(C(=S)N2CCOCC2)cc(Cl)c1OC(=O)c1ccc(F)cc1,i
Cc1ccc(O)c(C(CC(=O)N2CCNCC2)c2ccccc2)c1 (stereo not drawn),i
CC(C)NCC(O)Cn1c2c(c3ccccc31)CCCC2=O (stereo not drawn),i
CS(=O)(=O)N(CC(=O)Nc1cccc2ccccc12)c1ccc(Br)cc1,i
Cc1cc(=O)[nH]c(SCC(=O)OCc2ccccc2)c1C#N,5.1%
CCC(C)Sc1nc2c(c(=O)[nH]1)C(c1ccc(C(=O)OC)cc1)C1=C(CCCC1=O)N2 (stereo not drawn),i
CN1CCN(C(=O)c2cc([N+](=O)[O-])ccc2N2CCOCC2)CC1,i
CCc1nnc(NS(=O)(=O)c2ccc(NC(=S)NC(=O)c3cccc(OCc4ccccc4)c3)cc2)s1,i
CCSc1nnc(-c2ccc(Cl)cc2)o1,42.9%
O=C(NC(Cc1ccccc1)C(=O)O)c1ccc(C#CC2(O)CCCCC2)cc1 (stereo not drawn),i
O=C(CSCc1ccc(Cl)cc1)Nc1ccc(S(=O)(=O)N2CCCCCC2)cc1,i
COCCNS(=O)(=O)c1c(C)cc(C)cc1C,i
COc1ccc(NC(=O)C2CCN(S(=O)(=O)c3ccc(Cl)cc3)CC2)cc1Cl,i
CCOc1cc(C=O)ccc1OC(=O)c1ccc(F)cc1,i
CC(C)C(NS(=O)(=O)c1ccc([N+](=O)[O-])cc1)C(C)C,i
O=C(NCCCO)c1cc2ccccc2[nH]1,i
CCOC(=O)c1ccccc1NC(=O)c1cnccn1,1.4%
CC(C)OC(=O)c1sc2nc3c(cc2c1N)C(=O)CCC3,i
Oc1ccc(/C=C/c2nc(-c3ccccc3O)n(-c3ccccc3)n2)c(O)c1,9.6%
CCC(C)Oc1ccc(C(=O)NC(=S)Nc2ccccc2C(N)=O)cc1 (stereo not drawn),i
CCCCOc1ccc(C(=O)Nc2ccc3oc(=O)ccc3c2)cc1,i
CCOc1ccc(C(=O)Nc2ccc(CN3CCOCC3)cc2)cc1[N+](=O)[O-],i
CCOc1ccc(C2CC(c3ccccc3Cl)n3nc(N)nc3N2)cc1 (stereo not drawn),i
CCOc1ccc(CC2(CCc3ccccn3)C(=O)NC(=O)N(c3ccc(CC)cc3)C2=O)cc1 (stereo not drawn),i
Cc1ccc(C)n1-c1oc(-c2ccco2)c(-c2ccco2)c1C#N,i
COC(=O)C(Cc1ccccc1)NC(=O)c1cc(-c2ccc3c(c2)OCCO3)oc1C (stereo not drawn),0.5%
O=[N+]([O-])c1ccc(Sc2nc(-c3ccccc3)cc(C(F)(F)F)n2)nc1,0.0%
Cc1ccsc1/C=C(\C#N)S(=O)(=O)c1ccc(Cl)cc1,i
COc1ccccc1CN1CCC(C(=O)N(CCc2ccccc2)Cc2ccccc2)CC1,1.3%
C(=C\c1ccccc1)/CSc1nnc(CSc2nc3ccccc3s2)o1,i
OCCCNC(=S)NCCc1ccccc1,i
CCOC(=O)C1C(=O)NC(N2CCOCC2)=NC1c1ccco1 (stereo not drawn),0.3%
N/C(=N\c1nc(C(F)(F)F)cc(=O)[nH]1)Nc1cc(Cl)cc(Cl)c1,2.9%
Cc1cccc(Nc2ncnc3ccc(Br)cc23)c1C,4.9%
O=C(CN(CCc1ccccc1)S(=O)(=O)c1cc(Cl)ccc1Cl)N1CCOCC1,1.4%
CCn1c(Sc2ccc([N+](=O)[O-])cn2)nnc1-c1ccncc1,i
COC(=O)c1ccc(C(=O)OC)c(NC(=O)Nc2cc(OC)ccc2OC)c1,0.8%
Cc1ccc(S(=O)(=O)NC(C)C(=O)Nc2ccc(I)cc2)cc1 (stereo not drawn),?
O=C(NCc1cccs1)c1nn2cccnc2c1Cl,i
CC(C)CNC(=O)CCc1ccc(S(=O)(=O)NC(C)c2ccccc2)cc1 (stereo not drawn),i

Next part:
compound | Mtb growth
Cc1nc(C)c(-c2csc(NCCc3ccccc3)n2)s1 | 9.2%
Cc1cccc(C(C)C)c1NC(=O)c1c(-c2ccccc2)noc1C | i
CC1CC(=O)c2cnc(N3CCOCC3)nc2C1 (stereo not drawn) | i
O=C(Oc1ccc(N(Cc2cccs2)C2=NS(=O)(=O)c3ccccc32)cc1)c1ccco1 | i
CC(NC(=O)CN(c1ccc2c(c1)OCO2)S(C)(=O)=O)c1ccccc1 (stereo not drawn) | i
CC12CCC(C(=O)N3CCCc4ccccc43)(CC1=O)C2(C)C (stereo not drawn) | i
O=C1c2ccccc2C(=O)N1Cc1ccc2c(c1)CN1C(=O)c3ccccc3C1=N2 | i
CN(C)CCCC(O)(c1ccccc1)c1ccccc1 | i
COCCCN1C(=O)/C(=C\C=C\c2ccccc2)SC1=S | i
Cc1c(C)c2ccc(OCc3ccccc3Br)cc2oc1=O | i
O=C(CSc1ncn[nH]1)NCCOc1ccccc1 | i
COc1ccccc1N1CCN(C(=O)c2ccccc2N(C)S(C)(=O)=O)CC1 | i
COc1ccc2oc(=O)c(C(=O)Nc3cccc4ccccc34)cc2c1 | i
COc1ccc(CNC(C)c2ccccc2)cc1Cl (stereo not drawn) | i
O=C(CCc1ccc(S(=O)(=O)NCCc2ccccc2)cc1)NCc1ccccc1 | i
CCCC(C)C(=O)NCCCOCC (stereo not drawn) | i
CC(C)CN1C(=O)CC(Sc2ccccc2C(=O)O)C1=O (stereo not drawn) | i
Cc1occc1C(=O)Nc1ccc(S(=O)(=O)NC23CC4CC(CC(C4)C2)C3)cc1 | 3.4%
C=CCNC(=O)Nc1ccc2oc(C)nc2c1 | i
COC(=O)c1c(NC(=O)CSc2ccccc2)sc2c1-c1ccccc1CC2 | 7.2%
O=C(NC1CCCCC1)C1CCN(S(=O)(=O)c2ccccc2)CC1 | i
CC(NC(=O)c1ccc(F)cc1)C(=O)O (stereo not drawn) | 4.5%
COc1ccc(C(C)C)cc1S(=O)(=O)N(C)C1CCCCC1 | i
Cc1cccc(OCCCC(=O)Nc2ccc(Cl)cc2C)c1 | i
CCc1cccc(CC)c1NC(=O)c1ccc(OC(C)=O)cc1 | i
COC(=O)Cc1c(C)c2ccc(OCc3ccc(Cl)cc3)c(C)c2oc1=O | 0.9%
CCn1c(SCC(=O)Nc2ccc(OC)cc2)nnc1-c1cccnc1 | 0.4%
Clc1ccc(-c2nc3ccccc3o2)cc1Cl | i
Cc1ccccc1C(=O)Nc1ccccc1N1CCCCC1 | 14.2%
O=C(Nc1ccc(NC(=O)c2ccc(N3CCCC3)c([N+](=O)[O-])c2)cc1)c1cccc(Cl)c1 | i
CCOc1ccc(N/C(N)=N/c2nc(C)cc(C(F)(F)F)n2)cc1 | ?
CCOC(=O)c1ccc(NC(=S)NCCNC(C)=O)cc1 | i
S=C(NC1CCCCC1)N1CCCC1 | 3.3%
Cc1cc2oc(C(=O)Nc3nc(-c4ccc(S(=O)(=O)N5CCCC5)cc4)cs3)c(C)c2cc1C | i
O=C(CSc1nnc(-c2ccc(Cl)cc2Cl)o1)C12CC3CC(CC(C3)C1)C2 | i
Cc1ccccc1C(=O)NCCOc1ccccc1Cl | i
COc1ccc(-c2ccc(CCC(=O)O)n2-c2ccc(C(=O)O)cc2)cc1 | i
O=C(NCc1ccc2c(c1)OCO2)NC12CC3CC(CC(C3)C1)C2 | i
COc1ccc(CC(=O)Nc2ccc(-c3ccc(NC(=O)Cc4ccc(OC)cc4)c(C)c3)cc2C)cc1 | i
CCOC(=O)C1CCN(C(=O)c2ccc(Cl)c(Cl)c2)CC1 | i
COc1ccc(OC)c(C(=O)c2ccccc2)c1 | 4.8%
CCN(CC)CC#CC(CC)(CC)OCCC#N | i
COc1ccc(OC)c(S(N)(=O)=O)c1 | i
Cc1nc2cc(NC(=O)Nc3ccc(N4CCOCC4)cc3)ccc2n1C | i
Cc1c(NC(=O)CCSc2ccc(Cl)cc2)c(=O)n(-c2ccccc2)n1C | i
CCOC(=O)COc1ccc(C(=O)CC)cc1OC | ?
Cc1cc(Br)cc(C)c1OCCCCN1CC(C)OC(C)C1 (stereo not drawn) | i
Cc1ccc(S(=O)(=O)N2CCC(C(=O)Nc3ccc(C)c(Cl)c3)CC2)cc1 | i
COc1ccccc1CNC(=O)CSc1ccccc1 | i
CN1CCN(C(=O)c2ccc(-c3ccccc3)cc2)CC1 | 0.3%
Cc1noc(C)c1C(=O)Nc1ccc(Oc2ccc(Cl)cc2)cc1 | i
CC(C)Oc1ccc(C2CC(=O)C3=C(C2)Nc2ccccc2NC3c2ccccn2)cc1 (stereo not drawn) | i
CC(=O)c1c(NCCc2ccccc2)cc(C)oc1=O | 7.3%
COC(=O)c1ccccc1NC(=O)N1CCN(C(=O)C2CCCO2)CC1 (stereo not drawn) | i
COc1ccccc1C(=O)NCCCN1CCN(CCCNC(=O)c2ccccc2OC)CC1 | i
O=C(CC(Nc1ccccc1)c1ccc(F)cc1)c1ccccc1 (stereo not drawn) | ?
CCn1c(SCC(=O)N2CCN(c3ccccc3)CC2)nnc1-c1ccc(N)cc1 | i
CC(=O)NC(=S)Nc1ccccc1N1CCOCC1 | 9.0%
CSc1ccccc1NC(=O)c1oc2ccccc2c1C | i
COC(C)CS(=O)(=O)c1ccc(C)c([N+](=O)[O-])c1 (stereo not drawn) | i

Following part:
compound | Mtb growth
COc1ccc(NC(=S)NNC(=O)C(C)Oc2ccc(Br)cc2)c(OC)c1 (stereo not drawn) | i
Cc1cc(Cl)c(OCCCN(C)C)c(Br)c1 | i
Fc1ccc(CNC(=S)N2CCN(C/C=C/c3ccccc3)CC2)cc1 | 47.2%
CC1(C)CC(=O)C(C2C3=C(CC(C)(C)CC3=O)Oc3ccccc32)=C(O)C1 (stereo not drawn) | i
Cc1ccc(NC(=O)C(C)Oc2cccc(Cl)c2)cc1 (stereo not drawn) | i
Cc1nn(CC(O)COc2ccc(C(=O)c3ccccc3)cc2)c(C)c1Br (stereo not drawn) | i
CC(Oc1ccc(Cl)cc1Cl)C(=O)Nc1nnc(C2CCCCC2)s1 (stereo not drawn) | i
O=S(=O)(Nc1ccc(S(=O)(=O)N2CCCCC2)cc1)c1cccs1 | i
O=C(Nc1ccccc1C(F)(F)F)N1CCN(Cc2ccc(Cl)c(Cl)c2)CC1 | 1.2%
O=C(CC1Sc2ncnn2C1=O)Nc1ccc(Br)cc1 (stereo not drawn) | ?
Cc1ccc(Cl)cc1N(CC(=O)O)S(=O)(=O)c1ccccc1 | i
CCOCC(=O)Nc1ccccc1OC | i

Entries shown so far that contain an aryl thioether with sulfur outside any ring (16):
compound | Mtb growth
Nn1c(Cc2ccccc2)nnc1SCc1nnc(-c2ccccc2)o1 | 0.3%
Cc1cc(=O)[nH]c(SCC(=O)OCc2ccccc2)c1C#N | 5.1%
CCC(C)Sc1nc2c(c(=O)[nH]1)C(c1ccc(C(=O)OC)cc1)C1=C(CCCC1=O)N2 (stereo not drawn) | i
CCSc1nnc(-c2ccc(Cl)cc2)o1 | 42.9%
O=[N+]([O-])c1ccc(Sc2nc(-c3ccccc3)cc(C(F)(F)F)n2)nc1 | 0.0%
C(=C\c1ccccc1)/CSc1nnc(CSc2nc3ccccc3s2)o1 | i
CCn1c(Sc2ccc([N+](=O)[O-])cn2)nnc1-c1ccncc1 | i
O=C(CSc1ncn[nH]1)NCCOc1ccccc1 | i
CC(C)CN1C(=O)CC(Sc2ccccc2C(=O)O)C1=O (stereo not drawn) | i
COC(=O)c1c(NC(=O)CSc2ccccc2)sc2c1-c1ccccc1CC2 | 7.2%
CCn1c(SCC(=O)Nc2ccc(OC)cc2)nnc1-c1cccnc1 | 0.4%
O=C(CSc1nnc(-c2ccc(Cl)cc2Cl)o1)C12CC3CC(CC(C3)C1)C2 | i
Cc1c(NC(=O)CCSc2ccc(Cl)cc2)c(=O)n(-c2ccccc2)n1C | i
COc1ccccc1CNC(=O)CSc1ccccc1 | i
CCn1c(SCC(=O)N2CCN(c3ccccc3)CC2)nnc1-c1ccc(N)cc1 | i
CSc1ccccc1NC(=O)c1oc2ccccc2c1C | i

Some of the compounds tested; the hit share may differ from the screen's.
